# TRPML1 agonist: agonists of human TRPML1 channel | activation, % (no concentration beside the values) | TRPML1-expressing cells, Ca2+ dye fluorescence, FDSS; host cell line not named in the record; reference of the full effect not given here | actives 0.12% (n = 410,000); in the data active = activation above about 50%; inconclusive = about 30% to 50%; inactive = below about 30%; further: 0% is about no effect; the text of the record puts the active cut at 80%
#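 Agonist activity was taken from a 110 s kinetic Ca2+ dye read on the FDSS after pinning compounds onto TRPML1-DL cells. The cells were seeded at 1,500/well with Tet inducer, incubated about 16 h, then dye-loaded at room temperature.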
# TRPML1 blocker: human mucolipin-1 channel inhibition; Q9GZU1; TRPML1-inducible cells, Ca2+ dye fluorescence, FDSS; hits give low values; inhibition of EC80 agonist-evoked calcium signal; activity change, negative = inhibition, % (concentration not given with the values); actives 0.02% (n = 390,000); in the data active means activity change below about -50%; inconclusive means about -30% to -50%; inactive means above about -30%;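 further: stimulus is agonist 54-4 at its EC80 concentration; on the % scale 0 is the no-effect control and ±100 the full control effect; compound concentration not given in the record; the text of the record puts the active cut at -80%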
#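 Calcium fluorescence in TRPML1-DL cells induced overnight with Tet: a 110 s read after compound pin addition, then a 110 s antagonist read after challenge with 54-4 at 4 uM final (EC80).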
# Six1-Eya2 inh: inhibitors of human Six1/Eya2 interaction; Q15475+O00167; AlphaScreen GST-Six1/His-Eya2 binding, biochemical; hits give low values; control for the full effect not named in the record; activity change, % (no concentration beside the values); actives 0.56% (n = 360,000); in the data active = activity change below about -65%; inconclusive = about -30% to -65%; inactive = above about -30%; further: on the % scale 0 is the no-effect control and ±100 the full control effect; compound concentration not given in the record
# Target sequence (O00167 whole entry, looked up): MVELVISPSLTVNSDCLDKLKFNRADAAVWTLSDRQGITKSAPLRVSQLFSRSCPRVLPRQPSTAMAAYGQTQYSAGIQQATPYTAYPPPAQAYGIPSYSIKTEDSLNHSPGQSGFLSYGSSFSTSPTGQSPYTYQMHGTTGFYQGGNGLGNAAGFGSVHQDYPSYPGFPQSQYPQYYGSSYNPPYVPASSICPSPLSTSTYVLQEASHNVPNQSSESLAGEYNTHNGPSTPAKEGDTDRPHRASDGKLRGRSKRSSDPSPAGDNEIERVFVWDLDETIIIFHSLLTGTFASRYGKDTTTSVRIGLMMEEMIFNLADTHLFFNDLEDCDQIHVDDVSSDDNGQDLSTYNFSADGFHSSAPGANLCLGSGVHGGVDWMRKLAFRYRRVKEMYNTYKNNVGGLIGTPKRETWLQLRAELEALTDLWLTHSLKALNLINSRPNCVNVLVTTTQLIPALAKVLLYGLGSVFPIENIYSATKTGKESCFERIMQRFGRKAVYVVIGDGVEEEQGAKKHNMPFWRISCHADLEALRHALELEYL
# Target sequence (Q15475 whole entry, looked up): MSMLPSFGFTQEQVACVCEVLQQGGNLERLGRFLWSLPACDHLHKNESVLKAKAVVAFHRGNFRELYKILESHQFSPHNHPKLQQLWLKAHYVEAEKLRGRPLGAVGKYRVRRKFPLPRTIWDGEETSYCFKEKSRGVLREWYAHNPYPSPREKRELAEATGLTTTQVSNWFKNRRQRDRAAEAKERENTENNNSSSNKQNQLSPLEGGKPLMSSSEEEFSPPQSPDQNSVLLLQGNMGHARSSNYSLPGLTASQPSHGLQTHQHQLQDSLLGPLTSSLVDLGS
#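 GST-Six1 + His-Eya2 (5X stock: 250/500 nM); Tris pH 8.0, 300 mM NaCl, 0.05% BSA, 0.02% Tween 20; GSH donor/Ni acceptor beads; 1 h 37 °C dark; AlphaScreen readout.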
# TRPV1 PAM: potentiators of human vanilloid receptor 1 (TRPV1); Q8NER1; TRPV1-expressing cells, Fluo-8 calcium influx, capsaicin EC20 potentiation; host cell line not named in the record; control for the full effect not named in the record; potentiation, % at 8.33 µM; actives 0.02% (n = 320,000); AID 540277; active means potentiation above 80%; inconclusive means 30% to 80%; inactive means below 30%; further: 0% is about no effect
#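 Cells expressing TRPV1 were dye-loaded with Fluo-8 and read kinetically: 10 s baseline, 3 min after compound (agonist portion), then 2 min after EC20 capsaicin (allosteric enhancer portion). Calcium-bound dye fluorescence at 480/520 nm.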
# D2 potentiator: positive allosteric modulators of human D2 dopamine receptor; DiscoveRx D2 beta-arrestin cells, luminescence, 90 min; 100% = 57 uM dopamine signal; P14416; potentiation, % (no concentration beside the values); actives 0.23% (n = 360,000); AID 624464; active = potentiation of 50% or more; inconclusive = 30% to 50%; inactive = 30% or less;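 further: compound concentration not given in the record; tested on top of an EC20 dose of dopamine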
#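 D2 cells co-treated with compound plus 50 nM dopamine (EC20) for 90 min at 37 deg C to detect potentiation. Beta-arrestin recruitment was read as enzyme-fragment luminescence after 1 h at ambient temperature. Full response was set by 57 uM dopamine.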
# CtBP-E1A inh: inhibitors of CtBP/E1A interaction | AlphaScreen GST-E1A/His-CtBP binding, 1536-well; hits give low values; control for the full effect not named in the record | activity change, % (test concentration not listed) | actives 0.49% (n = 340,000) | AID 651724; in the data active means activity change below about -65%; inconclusive means about -30% to -65%; inactive means above about -30%; further: on the % scale 0 is the no-effect control and ±100 the full control effect; compound concentration not given in the record
#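 AlphaScreen with 125 nM GST-E1A and 125 nM His-CtBP (5X stocks) in Tris pH 8.0, 300 mM NaCl, BSA, Tween 20, TCEP. Compounds preincubated 2 h at 37 deg C, then glutathione donor/nickel acceptor beads added for 1 h at 37 deg C in dark.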
# * = called active by the depositor; ? = inconclusive; . = no result given; & = joins results of further samples.
Compound	TRPML1 agonist	TRPML1 blocker	Six1-Eya2 inh	TRPV1 PAM	D2 potentiator	CtBP-E1A inh
Cc1nn(C)cc1CN(C)C(=O)c1cc(COc2ccc(F)cc2F)on1	0.6	-15	5	10	-7	.
O=C(CSCCS(=O)(=O)c1ccc(Cl)cc1)Nc1ccccc1	-0.5	-2	16	0	0	0
O=C(N/N=C\c1ccco1)Nc1cccc(Cl)c1	-0.7	1	-1	-15	-1	-4
Cc1ccc(C2(c3noc(CN4C[C@@H](C)O[C@@H](C)C4)n3)CCCC2)cc1	0.4	19	2	-2	-11	7
Cc1ccc(S(=O)(=O)NCC(c2ccco2)N2CCOCC2)cc1 (configuration not stated)	0.0&-1.7	-7&7	-24	-2	1	-9
CCOC(=O)c1cc(-c2ccccc2)sc1NC(=O)CSc1nncs1	-0.3	2	-10	2	-11	-6
CN(CCO)c1cc(N2CCN(C(=O)c3ccco3)CC2)c2nonc2c1[N+](=O)[O-]	-0.2	-15	-21	0	-5	-21
CCN(CCNC(=O)C1CCCN(S(=O)(=O)c2cnc[nH]2)C1)c1ccccc1 (configuration not stated)	0.6	-10	-3	0	0	-2
CC1=CC(=O)C(C(C)=Nc2ccccc2Cl)C(=O)O1 (configuration not stated)	0.0	19	3	2	-2	7
O=C(CC(c1ccccc1O)N1CCCCC1)N1CCCCC1 (configuration not stated)	-0.1	-11	0	-6	-13	-6
CCCCCC(=O)c1c(C)[nH]c(C(=O)OCC)c1C	2.9	4	3	-10	-2	0
O=C1Nc2ccc(F)cc2C12Nc1ccccc1-c1nnc(SCc3ccccc3)nc1O2 (configuration not stated)	0.1	-1	-2	.	-55	-7
CCN(CCCNC(=O)C1CCC(=O)N1C1CCCC1)c1cccc(C)c1 (configuration not stated)	0.4	-23	0	-9	-8	0
COc1ccccc1CN1CC(C(=O)N(C)CCc2nc3ccc(F)cc3[nH]2)CCC1=O (configuration not stated)	-0.6	-8	4	-6	0	5
Cc1cc(-c2ccc(Cl)cc2Cl)c(C#N)c(=O)[nH]1	.	.	0	-15	-1	2
CN(C(=O)c1cccc(NC(=O)Cc2ccc(NC(=O)C3CCN(C(=O)C4CCCCC4)CC3)cc2)c1)C1CCC1	2.4	19	11	.	8	8
O=S(=O)(/N=C(/Nc1ccccc1)C(F)(F)F)c1ccccc1	0.1	-1	8	-2	-14	5
O=C(Nc1cc(S(=O)(=O)N2CCCC2)ccc1OCC(F)(F)F)c1ccccc1F	-0.1	12	-4	11	-9	-2
CCOC(=O)C1=C(C)OC2(O)c3ccccc3C(=O)C12O (configuration not stated)	-0.8	17	-4	5	-41	.
COc1cc2c(cc1NC(=O)COC(=O)c1ccc(C(C)(C)C)cc1)oc1ccccc12	-0.2	3	22	3	0	19
COc1ccc(N2C(=O)C3CCCN3C2=O)cc1 (configuration not stated)	-0.9	4	6	4	5	0
O=C(NCCS(=O)(=O)NCc1cccs1)c1ccccc1	-0.6	-8	7	.	-16	-3
O=C(CN1CCOc2ccccc21)N1CCC(Cc2ccccc2)CC1	1.9	6	-19	.	-6	-10
Clc1ccc2oc(-c3cccnc3NCc3ccccc3)nc2c1	-0.1	-5	11	12	-2	22
Cc1c(OC(C)C(=O)NCCCN2CCOCC2)ccc2c3c(c(=O)oc12)CCC3 (configuration not stated)	0.2	-2	2	-1	-9	4

# 4 compounds picked at random from the list so far, as already listed:
Compound	TRPML1 agonist	TRPML1 blocker	Six1-Eya2 inh	TRPV1 PAM	D2 potentiator	CtBP-E1A inh
Cc1ccc(S(=O)(=O)NCC(c2ccco2)N2CCOCC2)cc1 (configuration not stated)	0.0&-1.7	-7&7	-24	-2	1	-9
O=C1Nc2ccc(F)cc2C12Nc1ccccc1-c1nnc(SCc3ccccc3)nc1O2 (configuration not stated)	0.1	-1	-2	.	-55	-7
CCOC(=O)C1=C(C)OC2(O)c3ccccc3C(=O)C12O (configuration not stated)	-0.8	17	-4	5	-41	.
O=C(Nc1cc(S(=O)(=O)N2CCCC2)ccc1OCC(F)(F)F)c1ccccc1F	-0.1	12	-4	11	-9	-2

# (next part)
Compound	TRPML1 agonist	TRPML1 blocker	Six1-Eya2 inh	TRPV1 PAM	D2 potentiator	CtBP-E1A inh
Cc1ccccc1NC(=O)CN1C(=O)COc2ccc(Cl)cc21	0.9	11	1	.	2	3
CC(C)C[C@H](NC(=O)c1nc[nH]c1C(=O)NC1CCN(C(=O)OC(C)(C)C)CC1)C(=O)OCc1ccccc1	1.5	-3	-10	-4	5	-12
Cc1ccc(S(=O)(=O)CCC(=O)Nc2cc(C)on2)cc1	-0.6	19	2	.	-20	3
COc1cc2cc(Oc3ccc4ccc(=O)oc4c3)c(=O)oc2cc1O[C@@H]1O[C@H](CO)[C@@H](O)[C@H](O)[C@H]1O	-0.5	-10	-17	.	-8	2
CCC(OC(=O)c1nsc(Cl)c1Cl)C(=O)NCC1CCCO1 (configuration not stated)	-0.2	6	-6	3	-2	6
COC(=O)c1ccccc1NC(=S)N1CCC(N2CCCCC2)CC1	0.1	-23	-17	?	-4	.
COc1ccc(C2c3[nH]c4ccccc4c3C[C@H]3C(=O)N(c4ccccc4C(=O)NCCN4CCOCC4)C(=O)N23)cc1 (some centres not stated)	.	.	-7	1	-58	-5
C/C(=N\NC(=O)c1ccccc1)c1ccc(N2CCCCC2)cc1	0.2	5	-4	-15	-5	0
CCOc1ccc(CSC(=N)N)cc1[N+](=O)[O-]	-0.7	12	-3	5	-4	-1
Cc1ccc(C)c(N2CCN(C(=O)CCC(=O)N3CCOc4ccc(Cl)cc43)CC2)c1	1.1	-8	-9	-37	-9	-9
O=C(CNC(=O)c1ccccc1)OC1CCCCC1	-0.6	6	6	-14	-3	1
CCCSc1nc(C)cc(C)c1S(C)(=O)=O	0.3	-15	5	8	-3	12
Cc1cccc(-c2cc(C(=O)Nc3ccc4c(c3)OCCO4)c3ccccc3n2)c1	0.6	19	-20	-11	-1	-7
Cc1ccccc1NC(=O)c1ccc(Nc2c([N+](=O)[O-])cc([N+](=O)[O-])c3ccccc23)cc1	-0.8	-1	?	-4	-50	?
O=[N+]([O-])c1ccccc1S(=O)(=O)NC1CCCC1	-0.6	12	-1	0	2	3
c1ccc(Cn2nnc3c(N4CCc5ccccc5C4)ncnc32)cc1	0.4	-1	0	-3	-16	6
Cc1ccc(CS(=O)Cc2ccc(C(=O)NCC(C)c3ccccc3)o2)cc1 (configuration not stated)	0.6	-6	0	-6	1	5
COc1cc(-c2c(C#N)c(=O)[nH]c3c2c(C)nn3-c2ccccc2)ccc1O	0.4	-1	?	3	6	?
CCCCNC(=O)NS(=O)(=O)c1ccc(C(=O)OC(C)C)o1	0.2	-1	4	7	15	4
Cc1nc2cc(NCc3ccc(Cl)cc3)ccc2n1C	-0.7	-3	-15	4	-5	-7
COc1ccc(C(=O)C(/C=N/O)=N/Nc2ccc(F)cc2)cc1	0.5	16	-2	0	-2	-4
Cc1ccc(Oc2c(C)nc(-c3ccccc3)[nH]c2=O)cc1	-0.3	-7	10	-2	-2	9
CC(=O)NCC(=O)OCC(=O)Nc1ccc(C(C)=O)cc1	0.6	2	-1	?	-26	0
O=C(Nc1ccncc1)c1cncc(Br)c1	1.0	46	5	-16	1	2
CCOC(=O)c1c(-c2ccc(OC)cc2)oc2ccc(OCC(N)=O)cc12	2.1	3	-2	-8	-3	-6

# Single records, from the list above. Order of screens: TRPML1 agonist | TRPML1 blocker | Six1-Eya2 inh | TRPV1 PAM | D2 potentiator | CtBP-E1A inh
# Shown for COc1cc2cc(Oc3ccc4ccc(=O)oc4c3)c(=O)oc2cc1O[C@@H]1O[C@H](CO)[C@@H](O)[C@H](O)[C@H]1O → -0.5 | -10 | -17 | . | -8 | 2
# Shown for O=C(CNC(=O)c1ccccc1)OC1CCCCC1 → -0.6 | 6 | 6 | -14 | -3 | 1
# Shown for O=C(CN1CCOc2ccccc21)N1CCC(Cc2ccccc2)CC1 → 1.9 | 6 | -19 | . | -6 | -10

# (listing goes on)
Compound	TRPML1 agonist	TRPML1 blocker	Six1-Eya2 inh	TRPV1 PAM	D2 potentiator	CtBP-E1A inh
Cn1c(=O)c2c(nc(NCCc3ccccc3)n2Cc2ccccc2)n(C)c1=O	4.0	3	-3	7	-1	-2
Cc1ccc(S(=O)(=O)NC(=NC2CCCCC2)c2ccc(F)cc2)cc1	-1.5	-12	6	6	-14	3
Cc1ccc(-c2nc3c(cnn3-c3ccccc3)c(=O)o2)cc1	-0.5	9	-3	0	-5	-6
O=C(Nc1ccccc1N1CCCC1)c1cccnc1Cl	1.4	2	-1	7	-1	1
N#C/C(=C\c1ccc2c(c1)OCCO2)C(=O)NC1CCCCC1	0.1	-11	-3	-3	-4	-1
Cc1noc(C(=O)Nc2c(C)nn(Cc3ccccc3)c2C)c1Cl	-0.8	-6	3	-4	-2	5
CC(C)OC(=O)CSc1nnc(CNc2ccc(Cl)cc2)n1Cc1ccccc1	2.8	9	-2	1	-3	0
CC1CCN(CCCNC(=O)CN2C(=O)CSc3ccc(S(=O)(=O)N4CCCCC4)cc32)CC1	0.2&0.4	1&39	-3	9	-50	-10
CCCC(=O)Nc1ccc(N2CCN(C(=O)c3ccccc3C)CC2)cc1	-0.1	11	0	5	-2	0
Cc1onc(-c2c(F)cccc2Cl)c1C(=O)OCc1nnc(-c2ccccc2)o1	2.0	5	4	2	1	2
O=C(Cc1ccc(Cl)cc1)Nc1cccc(S(=O)(=O)N2CCCCC2)c1	-0.5	8	-1	-3	-2	5
COCc1cc(C)nc(N/N=C/c2ccc(Cl)c(Cl)c2)c1C#N	-0.2	9	13	-4	-2	-2
CC(C)CN(C(=O)COc1cccc(-n2cnnn2)c1)C1CCS(=O)(=O)C1 (configuration not stated)	0.5	1	15	-7	-7	6
CN(C)c1ccc(/C=N/n2c(C3CCCCC3)n[nH]c2=S)cc1	1.7	-2	-14	-10	-4	-11
COc1ccccc1OCCn1c(CO)nc2ccccc21	-0.8	9	-1	-4	5	-1
Cc1cc(NC(=O)CSc2nc3cc(Cl)ccc3c(=O)n2C(C)C)no1	0.0	-3	7	0	-1	7
Cc1cccc(-c2nnc(NC(=O)c3ccco3)s2)c1	-0.5	-9	6	7	-2	3
COc1cc(NC(=S)NC(=O)CC(C)C)ccc1NC(=O)c1cc2ccccc2o1	0.1	-16	3	3	-12	0
COc1ccccc1C(=O)Nc1ccnn1C1CCN(Cc2csc(C(C)=O)c2)CC1	-0.8	4	1	-7	-28	-5
CCOc1ccccc1NC(=S)NCCCn1ccnc1	-0.4	-2	6	0	-1	1
CCNC(=O)CSc1nc2ccccc2c(=O)n1-c1cc(OC)ccc1OC	0.4	-13	0	-2	-11	3
